Assay outcomes (PubChem)
A1 inhib – inhibitors of A1; MEF A1-2A-BIM cells, caspase-Glo luminescence, 3 h; percent of clofoctol signal, DMSO as zero; caspase activation, % (concentration not given with the values); 21,000 compounds, 0.51% hits;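 active = most replicate scores above 10, or exactly half above 10 with mean activity above 10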;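 note: effector caspase 3 and 7 activity cleaving a DEVD luciferin substrate; 50 nL library stock added to about 30 µL; numbers are from one replicate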
BJeLR viab HTS – compounds reducing viability of BJeLR cells | BJeLR fibroblasts viability, CellTiterGlo ATP luminescence, 48 h; HRASV12, hTERT and SV40 LT/ST transformed | viability loss activity score, % (no concentration beside the values) | 30,000 compounds, 0.64% hits; in the data active = viability loss activity score above about 50%; about a fifth of its hits are not listed in these tables;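 note: higher score means fewer live cells and less ATP luminescence; stock transfer was 50 or 100 nL into about 30 µL; 0% = vehicle wells and 100% = a reference killing control; one replicate is shown; the record names a cut of 85%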
Starred values were filed as active, the others as inactive; x = no result given. An excerpt (hit frequency here may not be typical).

mol	BJeLR viab HTS	A1 inhib
CC1(C)CC[C@]2(C(=O)O[C@@H]3O[C@H](CO[C@@H]4O[C@H](CO)[C@@H](O)[C@H](O)[C@H]4O)[C@@H](O)[C@H](O[C@@H]4O[C@H](CO)[C@@H](O)[C@H](O)[C@H]4O)[C@H]3O)CC[C@]3(C)C(=CCC4[C@@]5(C)CC[C@H](O)[C@@](C)(C(=O)O)C5CC[C@]43C)C2C1 (stereo not given in full)	-2.1	-0.8
CCOC(=O)c1cc(-c2ccc(C)cc2)n(CC(=O)NCC2CCCO2)c1C (stereo not given)	-1.7	0.3
CCN(CC)C(=O)c1cnn(-c2ccccc2)c1NC(=O)c1ccco1	4.4	0.5
CCn1cc(CCCC(=O)O)c2ccccc21	-1.2	0.5
C[C@@H]1CN([C@H](C)CO)C(=O)c2cc(NC(=O)CCC(F)(F)F)ccc2O[C@H]1CN(C)C(=O)Nc1ccccc1	2.9	0.2
COc1ccc(NC(=O)Nc2cccc3c2O[C@H](CN(C)Cc2ccc(C(=O)O)cc2)[C@H](C)CN([C@H](C)CO)C3=O)cc1	1.6	x
C[C@H]1CN([C@@H](C)CO)C(=O)c2cccc(NC(=O)Nc3cccc4ccccc34)c2O[C@H]1CN(C)C(=O)Nc1cccc2ccccc12	2.2	x
C[C@@H]1CN([C@@H](C)CO)C(=O)c2cccc(NC(=O)Nc3ccc4c(c3)OCO4)c2O[C@H]1CN(C)C(=O)NC1CCCCC1	-3.7	x
CNC[C@H]1Oc2ccc(NC(=O)C3CC3)cc2C(=O)N([C@H](C)CO)C[C@@H]1C	-3.3	0.6
C[C@@H]1CN([C@@H](C)CO)C(=O)c2cc(NC(=O)Cc3ccccc3)ccc2O[C@H]1CN(C)CC1CC1	-0.4	0.2
O=C(/C=C/c1ccco1)Nc1cccc(NC(=O)/C=C/c2ccco2)n1	-1.4	-1.4
CCOC(=O)c1sc2nc(SCC(=O)C(C)(C)C)n(Cc3ccccc3Cl)c(=O)c2c1C	1.1	0.3
COc1ccc(S(=O)(=O)Nc2cccc3c2O[C@H](CN(C)S(=O)(=O)c2ccc(C)cc2)[C@H](C)CN([C@H](C)CO)C3=O)cc1	0.3	x
C[C@@H]1CN([C@@H](C)CO)C(=O)c2cc(NC(=O)Cc3cn(C)c4ccccc34)ccc2O[C@H]1CN(C)C(=O)NC1CCCCC1	2.3	-0.5
Cc1ccc(S(=O)(=O)Nc2ccc3c(c2)C(=O)N([C@@H](C)CO)C[C@H](C)[C@@H](CN(C)S(=O)(=O)c2cccs2)O3)cc1	-2.6	0.9

mol	BJeLR viab HTS	A1 inhib
C[C@@H]1CN([C@@H](C)CO)C(=O)c2cccc(NC(=O)Nc3ccc(C(F)(F)F)cc3)c2O[C@H]1CN(C)C(=O)Nc1ccccc1	3.0	x
C[C@H]1CN([C@@H](C)CO)C(=O)c2cccc(NS(C)(=O)=O)c2O[C@@H]1CN(C)CC1CCCCC1	3.5	x
CSc1ccccc1N1C(=O)CC(Sc2ccccc2C(=O)O)C1=O (stereo not given)	1.8	-0.4
C[C@H](CO)N1C[C@H](C)[C@@H](CN(C)Cc2ccc(C(F)(F)F)cc2)Oc2ccc(NC(=O)Nc3ccc(F)cc3)cc2C1=O	0.6	-0.1
O=C(c1cc(-c2ccc(F)cc2)no1)N1CCN(c2cccc(Cl)c2)CC1	3.3	0.1
Cc1cccc(NC(=O)CSc2nc3c(cc2C#N)C(=O)CC(C)(C)C3)c1	0.8	-0.2
Cc1ccc(S(=O)(=O)Nc2cccc3c2O[C@H](CN(C)CC2CCCCC2)[C@@H](C)CN([C@H](C)CO)C3=O)cc1	2.8	x
Cc1noc(C)c1NC(=O)Nc1ccc2c(c1)C(=O)N([C@H](C)CO)C[C@H](C)[C@@H](CN(C)Cc1ccc(Cl)c(Cl)c1)O2	-3.3	0.2
Cc1noc(C)c1NC(=O)Nc1cccc2c1O[C@H](CN(C)C(=O)Nc1c(C)noc1C)[C@H](C)CN([C@H](C)CO)C2=O	2.6	x
O=C(NCC1CCCO1)c1ccc(CS(=O)(=O)c2ccc(Cl)cc2)o1 (stereo not given)	3.7	0.1
Cc1cc(C)cc(Oc2coc3cc(O)ccc3c2=O)c1	2.0	0.6
CCOc1ccc(NC(=O)c2cc3ccccc3o2)cc1	0.7	-0.6
COc1ccc(NC(=O)N(C)C[C@@H]2Oc3ccc(NC(=O)Nc4ccccc4)cc3C(=O)N([C@@H](C)CO)C[C@H]2C)cc1	2.7	0.5
Cc1noc(C)c1NC(=O)Nc1cccc2c1O[C@H](CN(C)C(=O)Nc1ccc(C(F)(F)F)cc1)[C@@H](C)CN([C@@H](C)CO)C2=O	8.1	x
C[C@@H]1CN([C@@H](C)CO)C(=O)c2cccc(NC(=O)c3ccncc3)c2O[C@H]1CN(C)S(=O)(=O)c1ccc(Cl)cc1	2.0	x

mol	BJeLR viab HTS	A1 inhib
CC1=C(C(=O)OCc2ccccc2)C(/C=C/c2ccccc2)N2C(=O)CCSC2=N1 (stereo not given)	-1.5	x
C=CCNc1nc(Nc2ccc(-c3nc4ccccc4o3)cc2)nc(OCC)n1	-3.8	0.1
C[C@H]1CN([C@@H](C)CO)C(=O)c2cccc(NS(C)(=O)=O)c2O[C@@H]1CN(C)Cc1ccc(Cl)c(Cl)c1	0.8	x
Cc1ccc2c(c1)CCCN2C(=O)c1scc(S(=O)(=O)c2ccc(Cl)cc2)c1C	-5.0	-1.2
Cc1noc(C)c1S(=O)(=O)N(C)C[C@@H]1Oc2ccc(NS(=O)(=O)c3ccc(F)cc3)cc2C(=O)N([C@@H](C)CO)C[C@@H]1C	1.6	0.8
Cc1ccc(S(=O)(=O)N(C)C[C@@H]2Oc3ccc(NC(=O)Nc4ccccc4)cc3C(=O)N([C@H](C)CO)C[C@@H]2C)cc1	-8.5	1.4
COc1c(O[C@@H]2O[C@H](CO[C@H]3OC[C@](O)(CO)[C@H]3O)[C@@H](O)[C@H](O)[C@H]2O)cc2occ(-c3ccc(O)cc3)c(=O)c2c1O	9.9	1.0
CC1CCCCN1S(=O)(=O)c1ccc(Cl)cc1 (stereo not given)	2.0	0.1
O=C(CC1CCC1)Nc1ccc(Oc2ccccc2)cc1	6.1	-0.5
C[C@@H]1CN([C@@H](C)CO)C(=O)c2cccc(NC(=O)c3cnccn3)c2O[C@H]1CN(C)Cc1ccc(Oc2ccccc2)cc1	-6.7	x
C[C@@H]1CN([C@H](C)CO)C(=O)c2cccc(NS(=O)(=O)c3ccc(F)cc3)c2O[C@@H]1CN(C)Cc1ccc(Cl)c(Cl)c1	-0.9	x
O=C(O)CCSc1nc2ccccc2n1C1CCCCC1	4.5	-0.2
O=C(NCc1cccnc1)C1=CCN(S(=O)(=O)c2ccccc2)CC1	0.5	-0.1
O=C(O)CSc1c2c(nc3cc(C(=O)Nc4ccc(F)c(Cl)c4)ccc13)CCCC2	1.7	x
C[C@H](CO)N1C[C@H](C)[C@H](CN(C)Cc2ccc(-c3ccccc3)cc2)Oc2c(NC(=O)c3cnccn3)cccc2C1=O	0.3	x

In the list so far, four contain a CF3 group.
mol	BJeLR viab HTS	A1 inhib
C[C@@H]1CN([C@H](C)CO)C(=O)c2cc(NC(=O)CCC(F)(F)F)ccc2O[C@H]1CN(C)C(=O)Nc1ccccc1	2.9	0.2
C[C@@H]1CN([C@@H](C)CO)C(=O)c2cccc(NC(=O)Nc3ccc(C(F)(F)F)cc3)c2O[C@H]1CN(C)C(=O)Nc1ccccc1	3.0	x
C[C@H](CO)N1C[C@H](C)[C@@H](CN(C)Cc2ccc(C(F)(F)F)cc2)Oc2ccc(NC(=O)Nc3ccc(F)cc3)cc2C1=O	0.6	-0.1
Cc1noc(C)c1NC(=O)Nc1cccc2c1O[C@H](CN(C)C(=O)Nc1ccc(C(F)(F)F)cc1)[C@@H](C)CN([C@@H](C)CO)C2=O	8.1	x

Additional records
mol	BJeLR viab HTS	A1 inhib
COc1ccc(S(=O)(=O)Nc2cccc3c2O[C@@H](CN(C)C(=O)Nc2c(C)noc2C)[C@H](C)CN([C@@H](C)CO)C3=O)cc1	9.6	x
Cc1ccc(C2=NC(C(F)(F)F)(C(F)(F)F)N=C3SCCN32)cc1	3.0	-0.4
C[C@H]1CN([C@@H](C)CO)C(=O)c2cccc(NC(=O)NC3CCCCC3)c2O[C@@H]1CN(C)Cc1ccc(Oc2ccccc2)cc1	-3.0	x
COc1ccc(NC(=O)N(C)C[C@H]2Oc3c(NC(=O)c4nc5ccccc5s4)cccc3C(=O)N([C@@H](C)CO)C[C@H]2C)cc1	4.6	x
CCOC(=O)C1CCN(C(=O)C2Cc3ccccc3N2C(=O)OCc2ccccc2)CC1 (stereo not given)	4.5	0.1
Cn1c(=O)[nH]c(=O)c2c1ncn2Cc1ccc(F)cc1	-1.2	-0.3
C[C@H](CO)N1C[C@H](C)[C@@H](CN(C)Cc2ccc(Oc3ccccc3)cc2)Oc2c(NS(=O)(=O)c3cccs3)cccc2C1=O	-1.3	x
CCOC(=O)c1c(CNc2cccc(C(N)=O)c2)n(C)c2cc(Br)c(OC(C)=O)cc12	-2.2	0.1
COc1ccc(C2=NN(CC(=O)NCC3CCCO3)C(=O)CC2)cc1 (stereo not given)	-2.9	2.5
COc1ccc(CNCc2ccc(F)cc2)cc1	-0.5	-0.1
C[C@@H]1CN([C@H](C)CO)C(=O)c2cccc(NC(=O)c3ccncc3)c2O[C@H]1CN(C)C(=O)Nc1cccc2ccccc12	1.7	x
COc1ccc(CN(C)C[C@@H]2Oc3ccc(NC(=O)Nc4ccc5c(c4)OCO5)cc3C(=O)N([C@H](C)CO)C[C@H]2C)cc1	-0.2	-0.2
C[C@H]1CN([C@@H](C)CO)C(=O)c2cc(NC(=O)Cc3cn(C)c4ccccc34)ccc2O[C@H]1CN(C)Cc1ccc(C(F)(F)F)cc1	-3.8	0.4
COc1ccc(NC(=O)Nc2ccc3c(c2)C(=O)N([C@H](C)CO)C[C@@H](C)[C@@H](CN(C)S(C)(=O)=O)O3)cc1	3.3	0.7
O=c1c(O[C@@H]2OC[C@H](O)[C@H](O)[C@H]2O)c(-c2ccc(O)c(O)c2)oc2cc(O)cc(O)c12	-3.9	1.1

mol	BJeLR viab HTS	A1 inhib
CC1CC(C)(C)NC(=S)N1CC(=O)N1CCC(Cc2ccccc2)CC1 (stereo not given)	-0.7	x
CC1=CC(CC2(C)OC2COc2c3occc3cc3ccc(=O)oc23)OC1=O (stereo not given)	-1.1	-0.5
CC(C)(C)c1cc(-c2csc(-c3ccno3)n2)cc(C(C)(C)C)c1O	-7.9	0.1
C[C@H](CO)N1C[C@H](C)[C@H](CN(C)S(=O)(=O)c2ccccc2)Oc2ccc(NC(=O)Nc3ccc(F)cc3)cc2C1=O	-1.4	0.0
O=C(CSc1nc2ccccc2c(=O)[nH]1)c1ccc(-c2ccccc2)cc1	-1.7	-3.5
O=C(Nc1ccccc1)Nc1csc(-c2ccc(C(F)(F)F)cc2)n1	1.7	-0.7
C=C[C@@](C)(O)CC/C=C(\C)C(=O)O[C@@H]1[C@@H]2O[C@]2(C)[C@H]2[C@H](O[C@@H]3O[C@H](CO)[C@@H](O)[C@H](O)[C@H]3O)OC=C[C@@]12O	8.9	0.1
CCc1ccc2[nH]c(C(=O)NCCc3ccccc3)cc2c1	1.7	0.6
Cc1csc2ncc(C(=O)N(C)c3ccccc3)c(=O)n12	3.1	x
COc1ccc(NC(=O)N(C)C[C@@H]2Oc3ccc(NC(=O)Nc4ccc(F)cc4)cc3C(=O)N([C@@H](C)CO)C[C@@H]2C)cc1	-6.6	1.7
C[C@@H]1CN([C@H](C)CO)C(=O)c2cc(NC(=O)C3CCCCC3)ccc2O[C@H]1CN(C)Cc1ccc(Oc2ccccc2)cc1	2.4	0.2
Cc1noc(C)c1NC(=O)N(C)C[C@H]1Oc2ccc(NS(=O)(=O)c3cccs3)cc2C(=O)N([C@@H](C)CO)C[C@@H]1C	9.0	1.2
C[C@@H]1CN([C@H](C)CO)C(=O)c2cc(NS(C)(=O)=O)ccc2O[C@@H]1CN(C)Cc1ccc(-c2ccccc2)cc1	-0.8	1.6
C[C@H](CO)N1C[C@H](C)[C@@H](CN(C)C(=O)NC2CCCCC2)Oc2c(NS(=O)(=O)c3ccc(Cl)cc3)cccc2C1=O	-4.2	x
C[C@@H]1CN([C@H](C)CO)C(=O)c2cc(NS(=O)(=O)c3ccc(F)cc3)ccc2O[C@@H]1CN(C)S(=O)(=O)c1ccccc1	2.5	0.0
COc1ccc(NC(=O)Nc2ccc3c(c2)C(=O)N([C@H](C)CO)C[C@@H](C)[C@@H](CN(C)S(=O)(=O)c2ccc(Cl)cc2)O3)cc1	3.1	-0.6
C[C@@H]1CN([C@@H](C)CO)C(=O)c2cccc(NC(=O)c3ccc(-c4nccs4)cc3)c2O[C@H]1CN(C)Cc1ccc(Cl)c(Cl)c1	-0.5	x

Three compounds already listed, arranged by the number in A1 inhib, high to low.
compound	A1 inhib
Cc1cc(C)cc(Oc2coc3cc(O)ccc3c2=O)c1	0.6
C[C@@H]1CN([C@@H](C)CO)C(=O)c2cc(NC(=O)Cc3cn(C)c4ccccc34)ccc2O[C@H]1CN(C)C(=O)NC1CCCCC1	-0.5
O=C(/C=C/c1ccco1)Nc1cccc(NC(=O)/C=C/c2ccco2)n1	-1.4
